Beta cell apopt = blocks beta cell apoptosis; AID 435005; 300,000 tested, 0.8% active; INS-1E cytokine-induced death, ATP luminescence, 48 h; percent of positive-control rescue, neutral wells zero; protection from apoptosis, % (test concentration not listed);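 active = all replicates at 75% or more, or half of them and the mean; inconclusive = half reach 75% but not the mean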;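 also: 0% = cytokine-treated negative control wells and 100% = positive control rescue; higher means more ATP so stronger rescue from cytokine killing; wells of about 40 µL received 100 nL stock; the first replicate is given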
UCH37 DUB inh = human UCH37 deubiquitinating enzyme inhibition; purified proteasome/UCH37, Ub-AMC cleavage fluorescence; Q9Y5K5; inhibition, % (concentration not given with the values); 330,000 tested, 0.33% active;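 active = mean of two replicates above 20%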;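 also: 0% = compound-free wells with enzyme and 100% = wells lacking proteasome; stock transfer was 100 nL into about 20 µL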
Target sequence (Q9Y5K5 whole entry, looked up): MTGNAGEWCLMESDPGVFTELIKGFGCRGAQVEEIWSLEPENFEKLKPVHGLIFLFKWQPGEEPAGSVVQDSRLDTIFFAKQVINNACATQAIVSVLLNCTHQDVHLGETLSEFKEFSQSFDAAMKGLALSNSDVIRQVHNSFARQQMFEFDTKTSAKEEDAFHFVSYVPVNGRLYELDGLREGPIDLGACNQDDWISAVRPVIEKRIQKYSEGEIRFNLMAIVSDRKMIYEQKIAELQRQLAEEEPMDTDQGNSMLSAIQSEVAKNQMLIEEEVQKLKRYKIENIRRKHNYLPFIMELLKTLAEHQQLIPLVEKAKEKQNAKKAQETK
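System: Proteasome-associated human UCH37 deubiquitinase; Input: 0.15 nM proteasome in added enzyme buffer; Also added: Ub-AMC substrate from 1 µM stock; Incubation: 30 min compound-proteasome preincubation then 25 min substrate reaction, room temperature; Detection: fluorescence, ex 355 nm, em 460 nm; Read-out: % inhibition of Ub-AMC cleavage fluorescence; Benchmarks: no-proteasome and no-compound wells.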
RanGTP-Impb inh = inhibitors of RanGTP-importin-beta interaction, primary screen, biochemical, FRET, CFP-Ran, YFP-importin-beta, homogeneous; inhibition, % (concentration not given with the values); AID 2216; 300,000 tested, 1.1% active; cell-free CFP-Ran/YFP-importin-beta FRET ratio;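 active = most replicates above 15%; inconclusive = exactly half above 15%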;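 also: 0% = DMSO wells and 100% = Ran loaded with GDP instead of GTP; wells of about 40 µL received 100 nL stock; the first replicate is given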
T cruzi inh = T. cruzi replication inhibition; T. cruzi beta-gal in NIH3T3, luminescence, 90 h; inhibition, % (test concentration not listed); 300,000 tested, 1.4% active; AID 1885;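 active = mean inhibition across valid replicates above about 55%, limit read from the data; inconclusive = mean below that limit but half or more replicates reach it; inactive = mean below it, under half of replicates reach it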;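 also: signal also drops with host cell toxicity which is not excluded here; 0% = plate median of DMSO wells and 100% = zero luminescence signal; higher percent means less beta-gal luminescence so fewer parasites; stock transfer was 50 nL into about 50 µL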
Calb FLC = C. albicans growth modulation with fluconazole | C. albicans CaCi-2 (fluconazole-resistant clinical isolate) + fluconazole, Alamar Blue growth, 48 h | growth inhibition, % (concentration not given with the values) | 300,000 tested, 0.57% active | AID 1979;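 active = most replicates above 75%; inconclusive = exactly half above 75%; inactive = most below 75%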;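 also: all wells also contain fluconazole at 8 µg/ml as a sub-toxic cotreatment; 0% = median of DMSO wells and 100% = median of geldanamycin control wells; wells of about 8 µL received 7.5 nL stock; the first replicate is given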
Bfl-1 A1 inh = inhibitors of the anti-apoptotic protein A1, read as caspase activation | MEF A1-2A-BIM cells, Caspase-Glo 3/7 luminescence, 3 h; percent of clofoctol response, vehicle zero | caspase activation, % (concentration not given with the values) | 330,000 tested, 0.066% active;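 active = over half of replicate activation scores above 10%, or exactly half above 10 with the replicate mean above 10; inconclusive = replicate mean below 10 yet half the replicates above 10; inactive = over half of replicates below 10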;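 also: wells of about 30 µL received 50 nL stock; many hits fall short of the cut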
LANA-H2A inh = blocks KSHV LANA binding to histone H2A/H2B; Q9QR71; cell-free LANA-H2A/H2B peptide, fluorescence polarization; inhibition, % (concentration not given with the values); 320,000 tested, 0.6% active; AID 2629; in the data active = inhibition mostly above about 10%, no sharp cut-off; inactive = mostly below about 6.7%;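 also: stock transfer was 7.5 nL into about 10 µL; 0% = median of vehicle wells and 100% = median of positive control wells; one replicate is shown; the record names a cut of 25% in any replicate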
Beta2AR agonist = agonists of human beta-2 adrenergic receptor inducing internalization. Am2.2-beta2AR cells, FAP receptor internalization, flow cytometry; reference of the scale not given here. response, % (concentration not given with the values). 340,000 tested, 0.43% active;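 active = response above a set limit, near 3 SD of response in nonfluorescent compounds, cut at about 42% in these data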;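 also: stock transfer was 100 nL into about 11 µL; a reference agonist was the positive control; negative values mostly stem from fluorescent compounds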
Target sequence (P07550 whole entry, looked up): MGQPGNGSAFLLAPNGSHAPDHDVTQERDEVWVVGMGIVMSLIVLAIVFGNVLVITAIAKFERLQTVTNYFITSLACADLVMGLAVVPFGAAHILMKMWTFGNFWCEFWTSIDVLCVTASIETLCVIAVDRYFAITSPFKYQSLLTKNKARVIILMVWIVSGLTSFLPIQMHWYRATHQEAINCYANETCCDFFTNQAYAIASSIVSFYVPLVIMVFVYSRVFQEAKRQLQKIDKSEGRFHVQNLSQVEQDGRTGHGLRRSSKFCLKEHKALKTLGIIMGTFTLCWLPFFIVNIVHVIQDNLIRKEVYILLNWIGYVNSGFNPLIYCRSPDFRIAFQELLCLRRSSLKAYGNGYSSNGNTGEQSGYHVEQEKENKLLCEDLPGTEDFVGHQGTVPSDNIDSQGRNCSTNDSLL
An asterisk follows results filed as active; ? = inconclusive; . = not tested or not shown.

Compound	Calb FLC	UCH37 DUB inh	Beta cell apopt	RanGTP-Impb inh	T cruzi inh	Bfl-1 A1 inh	Beta2AR agonist	LANA-H2A inh
COc1cc(C2c3c(oc4ccccc4c3=O)C(=O)N2Cc2ccncc2)ccc1O (stereo not given)	4.1	6.3	-4.8	-0.6	-16.3	-0.4	-7.8	-2.8
CCOC(=O)N1CCN(C(=O)c2ccccc2NS(=O)(=O)c2ccc(C)cc2)CC1	4.6	0.5	5.7	1.1	2.7	0.7	0.3	0.3
c1ccc(C2=Nc3ccccc3SC2c2nc3ccccc3[nH]2)cc1 (stereo not given)	-9.6	.	13.5	2.5	-17.5	-2.6	.	-6.5
CN(Cc1ccccc1)C(=O)COC(=O)CN1C(=O)c2ccccc2C1=O	.	-1.5	3.3	.	.	-1.9	-2.1	0.9
CC(=O)Nc1ccc(NC(=O)CSc2nc(=O)n(Cc3ccncc3)c3c2CCC3)cc1	8.2	7.9	-2.2	-1.1	-8.7	0.5	-0.6	-0.2
Cc1cc(C(=O)COc2cccc(-n3cnnn3)c2)c(C)n1-c1ccccc1	7.2	1.5	31.1	?	32.0	-0.4	-5.7	-0.3
CC12CC3CC(C)(C1)CC(CN1CCOCC1)(C3)C2	0.1	5.7	-0.4	4.3	-7.0	0.1	-108.8	2.1
O=C(OCC(=O)N1CCc2ccccc21)c1ccc(Cl)nc1	23.4	0.5	-7.8	12.4	-4.8	-0.4	.	0.7
O=C(COC(=O)c1ccccc1-c1nc2ccccc2s1)NC1CCS(=O)(=O)C1 (stereo not given)	-9.7	0.8	-5.0	-1.0	-16.7	0.4	1.5	5.2
Cc1ccc(NC(=S)NC(=O)Cc2ccccc2)c(O)c1	12.2	2.5	-1.0	-0.1	-6.2	1.0	3.4	-1.1
CCOc1cc(/C=N/NC(=O)Cc2ccc(C(F)(F)F)cc2[N+](=O)[O-])c(Br)cc1OC	-16.1	.	17.0	-2.5	3.1	0.6	3.7	-0.4
COC(=O)CSc1nc2sccc2c(=O)n1-c1ccccc1	6.0	1.0	1.2	-0.9	-15.8	1.5	1.1	-3.9
O=CN(CCN(C=O)CN1CCCCC1)CN1CCCCC1	4.1	2.1	-2.8	-0.5	-10.1	-0.2	5.0	1.6
CCOc1cc(N2CCOCC2)c(OCC)cc1NC(=O)COC(=O)COc1ccc(C#N)cc1	14.4	0.4	-1.9	1.9	-4.9	-0.5	-4.8	0.0
Cc1cc(=O)n2[nH]cc(-c3ccccc3)c2n1	0.7	-4.1	-5.3	-2.9	-7.8	-1.5	-1.0	-5.7
CCCN(CCC)CCCNC(=S)Nc1ccc2nc3n(c(=O)c2c1)CCCCC3	-7.4	0.1	-2.5	-1.7	1.2	0.4	-11.0	2.2
COc1ccc(NCc2n[nH]nc2-c2ccccc2)cc1Cl	7.6	5.6	-6.1	-1.6	2.1	-2.8	8.1	0.8
Cc1cccn2c(=O)c3cc(C(=O)NC4CCCCC4)sc3nc12	3.1	-167.7	0.8	2.0	4.8	-0.8	-9.8	32.6*
Cc1ccc(NC(=O)N2CCCC2C(=O)NCc2ccc3c(c2)OCO3)cc1 (stereo not given)	-4.4	2.1	-1.7	6.3	-4.4	0.4	-1.6	-2.2
NC(N)=NS(=O)(=O)c1ccc(NC(=S)NC(=O)c2ccccc2)cc1	0.1	1.8	-8.2	-0.3	-12.1	0.4	-4.6	4.9
CC1(c2cccc([N+](=O)[O-])c2)CC(C)(C)N(C(=O)c2ccccc2)c2ccccc21 (stereo not given)	-2.2	4.2	6.3	-1.4	37.9	0.5	18.6	13.2
CCN(CC)S(=O)(=O)c1ccc(N/N=C(\C)c2ccncc2)nc1	21.8	.	-6.3	-1.8	3.1	1.2	-1.7	4.4
COc1cc(/C=C/C(=O)O)cc(S(=O)(=O)NCCCC(=O)O)c1OC	-6.9	1.9	-2.9	0.2	-14.0	-1.0	4.3	5.9
C=CCSc1nc2ccsc2c(=O)n1-c1cccnc1	-3.2	0.7	-18.6	-3.4	-6.6	-0.4	1.5	0.1
CC1=C(C(=O)NC(C)C)C2(CCC(C)CC2)OC1=O (stereo not given)	-4.6	-1.5	-7.0	-0.8	-15.0	0.7	24.0	-2.7
CN(CCc1ccccc1)C(=O)c1cccc(NC(=O)Cc2ccc([N+](=O)[O-])cc2)c1	.	1.8	-9.4	.	.	1.4	-9.9	2.2
COc1cccc(CNC(=O)CCC2CCCN(c3cc(C)nc(N4CCCC4)n3)C2)c1 (stereo not given)	48.7	2.9	4.7	1.0	19.5	1.2	-19.2	-0.1
CCCCNC(=O)C(=O)NC(C)CCc1ccccc1 (stereo not given)	-5.8	0.1	-4.5	-1.4	3.2	1.7	-9.1	-2.4
Cc1cc(C(=O)N2CCN(c3ncccn3)CC2)c2cc(F)ccc2n1	-1.8	0.7	-11.4	0.0	-5.5	0.4	-2.2	0.5
O=C(c1ccc(CNc2c(N3CCCC3)c(=O)c2=O)cc1)N1CCN(C2CCCCC2)CC1	1.4	5.8	1.2	1.2	-17.7	-0.8	-2.7	-0.2
CCOC(=O)c1c(C)[nH]c(C(=O)/C(C#N)=C/c2ccc(OC(F)F)c(OC)c2)c1C	-0.8	6.0	-14.2	-4.3	5.4	-0.2	-32.7	6.3
O=C(O)c1ccc(Sc2nnnn2-c2ccccc2)c([N+](=O)[O-])c1	-0.9	3.5	-11.8	1.8	-2.1	0.2	9.8	3.0
COc1ccc(C2N(c3ccc(Cl)cc3)N=C(C(C)=O)N(C)N2C(C)=O)cc1 (stereo not given)	-2.4	4.6	-4.0	2.0	25.3	0.4	8.0	-1.1
N#Cc1c(-c2ccccc2)nc(SCC(=O)Nc2nnc(C(F)(F)F)s2)[nH]c1=O	25.1	7.1	-0.7	0.0	5.1	0.0	-1.8	4.0
CCCCC(OC(=O)c1ccco1)C(=O)NCc1ccc(C)cc1 (stereo not given)	4.2	-0.7	-0.8	-1.1	-1.7	0.4	5.4	9.6
CC1(C)c2[nH]c3ccccc3c2C[C@H]2C(=O)N(N)CC(=O)N21	2.9	2.7	7.3	1.3	-6.4	0.2	4.7	-7.4
CCCOC(=O)CSc1nnc(-c2ccc(Cl)cc2Cl)o1	9.7	-0.5	-1.4	1.0	0.2	-0.3	-1.0	-1.0
CCN1CCCC1CNC(=O)c1cc2c(OC)cccc2[nH]1 (stereo not given)	-0.3	-36.7	-6.5	6.9	21.7	-1.1	6.2	1.6
CCN(CC)CCN(C(=O)c1ccc(Br)s1)c1nc2cc3c(cc2s1)OCCO3	17.6	-6.8	4.0	3.9	52.6	0.7	4.4	-1.4
Cc1ccc(C)c(N=Nc2nc3ccccc3n2C)c1	32.4	3.8	1.4	-2.4	16.0	-6.2	4.7	-0.8
COc1ccc(C(=O)CC(SCC(NC(C)=O)C(=O)O)c2ccc(Cl)cc2)cc1OC (stereo not given)	36.5	2.5	-3.3	3.5	15.2	-0.7	4.3	0.0
COc1ccc(/C=N/NC(=O)c2ccn[nH]2)cc1COc1ccc(Cl)cc1Cl	37.3	.	4.3	-2.6	16.5	-0.3	10.1	5.6
Cc1cccc(NC(=O)C2CCCN(S(=O)(=O)c3c(C)nn(C)c3C)C2)c1 (stereo not given)	-6.2	1.6	-1.1	-2.7	-7.8	0.5	-4.6	2.3
Cc1cc(C)c(C(=O)CSc2nnc(C)c(=O)[nH]2)cc1C	12.0	3.8	1.2	?	-12.0	-0.3	15.8	6.4
O=C(Nc1cccc(Cl)c1)Nc1cccc(Cl)c1	.	3.6	43.1	0.4	34.0	-0.1	-3.0	-3.4
O=C(Nc1ccc2nc3n(c(=O)c2c1)CCCC3)c1cc([N+](=O)[O-])ccc1F	2.3	8.1	28.1	1.8	-36.5	0.5	5.3	.
CN(C)c1ccc(N=Nc2ccc(S(=O)(=O)O)cc2)c2ccccc12	34.1	16.9	2.2	-4.9	7.9	-0.1	3.1	-0.9
O=C(O)C=C1CCN(c2ncc(C(F)(F)F)cc2Cl)CC1	-14.0	-0.6	-4.0	-0.5	-6.6	-1.0	-4.8	-7.3
COc1cc(Nc2cccc[n+]2C)cc(OC)c1OC	7.6	5.7	-4.3	8.7	19.4	-0.7	-2.3	3.1
C=CCc1c(C)nc(-c2ccccc2)nc1N/N=C(\C)c1ccc(N)cc1	-3.8	.	-6.0	1.8	15.4	-0.2	1.3	2.0

Other results:
Compound	Calb FLC	UCH37 DUB inh	Beta cell apopt	RanGTP-Impb inh	T cruzi inh	Bfl-1 A1 inh	Beta2AR agonist	LANA-H2A inh
O=c1c2c(nc3cc(-c4ccc(F)cc4)[nH]n13)CCC2	2.5	.	-3.3	7.3	1.3	-3.8	-11.2	2.8
Cc1ccccc1OCCC(=O)OCC(=O)N1c2ccccc2NC(=O)C1(C)C	-3.6	.	-5.4	-3.1	-8.3	-0.1	-7.6	4.6
COc1ccc(OC)c(N(CC(=O)Nc2cccc3ccccc23)S(C)(=O)=O)c1	-5.4	6.9	-6.8	1.9	-13.1	0.2	8.6	0.4
CN(CC(=O)NCCc1ccccc1)S(=O)(=O)c1cnc[nH]1	?	1.5	-5.9	3.7	-20.2	0.5	1.1	-2.7
O=C(Nc1ccc(Oc2cccc(C(F)(F)F)c2)nc1)c1cccs1	-1.7	1.5	-2.3	7.6	10.7	0.7	-7.0	-2.4
C=CCOc1c(Cl)cc(C(=S)N2CCCC2)cc1OCC	-2.0	1.0	.	3.9	6.2	0.4	-2.2	-2.2

High-throughput results from PubChem BioAssay.
